Rango complex inh: inhibitors of Rango-importin beta complex formation; Rango CFP/YFP FRET sensor + importin beta, 45 min; Potency, µM (highest dose often 92.2 µM), for inactives: at the highest dose inhibition of complex formation; 0.031% of 340,000 active; active = rising FRET ratio curve, often small or poorly fitted; inconclusive = mostly compound fluorescence or quenching in the first reads; inactive = flat curves in all reads;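 note: potency is the fitted concentration of half-maximal effect; 0% = DMSO wells and 100% = buffer wells lacking importin beta; nearly all actives have a fitted effect of over 15% in size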
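Inhibition scored from the CFP 486 nm/YFP 530 nm FRET ratio 45 min after adding 0.125 microM importin beta to 50 nM Rango biosensor preincubated 5 min with compound (room temperature, PBS with DTT, Tween-20, BSA). No-importin wells as positive control.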
miR-21 FLuc: raises the signal of a miR-21 reporter; HeLa miR-21 FLuc reporter, luciferase, 48 h; Potency, µM (top dose mostly 38.3 µM), without a hit: top-dose reporter change, positive = more light; 340,000 tested, under 10 active; AID 2288; active = well fitted rising curve with a large enough effect; inconclusive = small, poorly fitted or top-dose-only effect; inactive = no such curve, though single readings can be large or run the other way;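 note: % of control where 0% means no effect; miR-21 action dims this reporter so a rising signal means less miR-21 action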
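Compounds were titrated across several concentrations (up to approximately 40 uM) and incubated 48 hours with HeLa miR-21-FLuc reporter cells (miR-21 target sequence downstream of FLuc, endogenous miR-21). Readout was firefly luciferase luminescence after lytic detection reagent.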
Rango dissoc inh: inhibitors of RanGTP-induced Rango-importin beta complex dissociation | O95149+P62826 | Biochemical FRET Rango-importin beta, RanGTP-induced dissociation | Potency, µM (doses to about 46.1 µM), without a hit: at the highest dose activity change, negative = inhibition | 0.071% of 340,000 active | AID 540253; active means falling FRET ratio curve, often poorly fitted, with flat reads before Ran was added; inconclusive means other falling curves, or compound fluorescence or quenching; inactive means flat or rising ratio curve;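 note: potency is the fitted concentration of half-maximal effect; % of control where 0% means no effect; nearly all actives have a fitted effect of over 45% in size; -100% = wells without RanGTP and RCC1; the record marks most hits as doubtful in a second field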
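Quantitative HTS using a FRET biosensor: 0.1 uM Rango, 0.25 uM importin beta, 0.6 uM Ran, 2 mM GTP, 0.2 uM RCC1 final, PBS with DTT, Tween-20 and BSA. Post-read taken 45 min after Ran addition.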
GLA inh pH 4.5: alpha-galactosidase A (human) inhibition, pH 4.5; purified enzyme, 4-MU-alpha-Gal fluorescence, pH 4.5; activity change, negative = inhibition, % at 105 µM; P06280; AID 1467; 230,000 tested, under 10 active; inconclusive = small, poorly fitted or top-dose-only inhibition, or a rising curve; inactive = flat fitted curve, though single readings scatter; no compound was filed as active;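 note: 0% = full activity with enzyme and -100% = basal without enzyme; dose as in the result columns while the protocol names 77 µM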
Target sequence (P06280 whole entry, looked up): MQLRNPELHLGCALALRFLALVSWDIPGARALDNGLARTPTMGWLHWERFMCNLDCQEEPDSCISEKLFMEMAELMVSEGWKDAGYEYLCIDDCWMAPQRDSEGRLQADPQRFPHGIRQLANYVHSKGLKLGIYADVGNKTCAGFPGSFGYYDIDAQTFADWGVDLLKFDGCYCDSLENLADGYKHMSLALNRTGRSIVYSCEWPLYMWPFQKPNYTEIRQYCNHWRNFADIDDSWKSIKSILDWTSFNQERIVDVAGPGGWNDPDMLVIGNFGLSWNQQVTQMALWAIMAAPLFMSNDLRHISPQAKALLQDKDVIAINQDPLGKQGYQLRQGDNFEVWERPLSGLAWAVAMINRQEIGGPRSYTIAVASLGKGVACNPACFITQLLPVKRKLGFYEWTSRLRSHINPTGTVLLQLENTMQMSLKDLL
The depositor's hits bear a star; & = joins results of further samples. Only part of the results is shown. The share of hits here may be higher or lower than overall.

For CCCCC1CCC(c2ccc(C(N)=O)cc2)CC1 (centres undefined) the results were Rango complex inh 0.5%, miR-21 FLuc -10%, Rango dissoc inh -11% and GLA inh pH 4.5 -8.
Cn1c(SCC(=O)NC2(C#N)CCCCC2)nnc1-c1cccnc1 was read as Rango complex inh 4.1%, miR-21 FLuc 1% and Rango dissoc inh 9%.
For COc1ccc(NC(=O)C2COc3ccccc3O2)cc1 (centres undefined) the results were Rango complex inh 3.7%, miR-21 FLuc -51% and Rango dissoc inh 2%.
Cc1ccnc(NC(=O)c2cccs2)c1 was read as Rango complex inh -2.9%, miR-21 FLuc -32%, Rango dissoc inh -3% and GLA inh pH 4.5 0.
Cc1cc(C)nc(Sc2c(C)nn(-c3ccccc3)c2C)n1 was read as Rango complex inh -1.4%, miR-21 FLuc -20%, Rango dissoc inh 0% and GLA inh pH 4.5 11.
For Cc1ccc(C(=O)c2oc3nc(C)cc(C)c3c2N)cc1 the results were Rango complex inh inconclusive, miR-21 FLuc -14%, Rango dissoc inh inconclusive and GLA inh pH 4.5 -3.
COc1ccc2c3n([n+]([O-])c2c1)CCN=C3c1cc(Cl)c(N)c(Cl)c1 was read as Rango complex inh 4.3% and Rango dissoc inh -18%.
For O=C(Nc1c2c(nn1-c1ccccc1)CS(=O)(=O)C2)c1cccs1 the results were Rango complex inh -0.2%, miR-21 FLuc 0% and Rango dissoc inh 3%.
CCOC(=O)C1CCN(Cc2cccc(OCc3ccccc3)c2)CC1 was read as Rango complex inh 3.8%, miR-21 FLuc 4% and Rango dissoc inh 1%.
Screening Cc1nn(C)cc1N1C(=O)c2cccc3c(N)ccc(c23)C1=O returned Rango complex inh inconclusive, miR-21 FLuc -10%, Rango dissoc inh inconclusive and GLA inh pH 4.5 -5.
`Cc1ccc(S(=O)(=O)N2CCCC2C(=O)NCc2ccc3c(c2)OCO3)cc1` (centres undefined) gave Rango complex inh 1.2%, miR-21 FLuc 0%, Rango dissoc inh -6% and GLA inh pH 4.5 4.
For Cc1ccccc1-n1nc2c(c1NC(=O)COc1ccc(Cl)cc1)CS(=O)C2 (centres undefined) the results were Rango complex inh -0.6%, miR-21 FLuc 1%, Rango dissoc inh -7% and GLA inh pH 4.5 -2.
Brc1ccc(-c2nnc3n2C2(CCCC2)Cc2ccccc2-3)o1 was read as Rango complex inh 0.2%, miR-21 FLuc 12%, Rango dissoc inh 1% and GLA inh pH 4.5 -10.
Screening CCOC(=O)C1CN(S(=O)(=O)c2ccc(C)cc2)c2cc(S(=O)(=O)CC)ccc2O1 (centres undefined) returned Rango complex inh -1.3%, miR-21 FLuc -7%, Rango dissoc inh 19% and GLA inh pH 4.5 -11.
For CC(=O)c1c(C)[nH]c(C(=O)CN2C(=O)NC(C)(c3ccc4c(c3)OCCO4)C2=O)c1C (centres undefined) the results were Rango complex inh -1.3% and Rango dissoc inh 17%.
`O=C(CCNc1n[nH]c(=O)[nH]c1=O)N/N=C\c1ccc(Br)cc1` gave Rango complex inh 0.5%, miR-21 FLuc 0%, Rango dissoc inh -3% and GLA inh pH 4.5 1.
For CCCC(=O)Nc1cc2c3c(c1)C(C)C(=O)N3CCC2 (centres undefined) the results were Rango complex inh 0.6%, miR-21 FLuc 4% and Rango dissoc inh -1%.
For COc1ccc(NC(=O)NN2CCN(C)CC2)c(OC)c1 the results were Rango complex inh 0.4%, miR-21 FLuc 6% and Rango dissoc inh -3%.
`COCCn1c(=O)[nH]c2cc(C(=O)N3CCN(Cc4ccc5c(c4)OCO5)CC3)ccc2c1=O` gave Rango complex inh 2.5% and Rango dissoc inh 5%.
`CN(C)S(=O)(=O)N1CCc2ccccc21` gave Rango complex inh 4.5%, miR-21 FLuc -5%, Rango dissoc inh -5% and GLA inh pH 4.5 5.
For COc1cccc(C2C3=C(CC(C)(C)CC3=O)OC(N)=C2[N+](=O)[O-])c1 (centres undefined) the results were Rango complex inh 0.3%, miR-21 FLuc 0%, Rango dissoc inh 5% and GLA inh pH 4.5 0.
Screening O=C(CN1CCC(C(=O)c2ccc3c(c2)OCCO3)CC1)Nc1ccccc1C(F)(F)F returned Rango complex inh 2.3%, miR-21 FLuc -10% and Rango dissoc inh -3%.
For CCOC(=O)C1=C(COC(=O)/C=C/c2cccc([N+](=O)[O-])c2)NC(=O)NC1C (centres undefined) the results were Rango complex inh 0.5% and Rango dissoc inh 28%.
`Cn1ncc(Cl)c1C(=O)N1CCN(C23CC4CC(CC(C4)C2)C3)CC1` gave Rango complex inh inconclusive, miR-21 FLuc -8% and Rango dissoc inh 1%.
For Cc1cccc(NC(=O)Cn2cc(C(=O)C3CC3)c3ccccc32)c1C the results were Rango complex inh 0.3%, miR-21 FLuc 17% and Rango dissoc inh 11%.
For CC(=O)c1ccc(N2CCN(C(=S)Nc3cccc(Cl)c3)CC2)cc1 the results were Rango complex inh -1.4%, miR-21 FLuc -4%, Rango dissoc inh 1% and GLA inh pH 4.5 6.
`O=C(Cc1cccs1)NCc1ccccc1Br` gave Rango complex inh -1.3%, miR-21 FLuc -42% and Rango dissoc inh 9%.
Screening Cc1ccc(S(=O)(=O)NCc2ccc(C(=O)NCCc3ccc(S(N)(=O)=O)cc3)cc2)cc1 returned Rango complex inh -0.7%, miR-21 FLuc 4% and Rango dissoc inh -8%.
Screening O=C(Nc1ccc(Nc2ccccc2)cc1)c1ccc(Cl)cc1 returned Rango complex inh -3.9% and Rango dissoc inh -3%.
For CC(Sc1nnc(Cc2cccs2)n1C1CCCCC1)C(=O)N1CCc2ccccc21 (centres undefined) the results were Rango complex inh -1.2%, miR-21 FLuc 17%, Rango dissoc inh -1% and GLA inh pH 4.5 -1.
COc1ccc(Nc2oc(COc3ccc(Cl)cc3)nc2C#N)cc1 was read as Rango complex inh -2.6%, miR-21 FLuc inconclusive, Rango dissoc inh 2% and GLA inh pH 4.5 -11.
For CC(=O)Oc1ccc2oc(=O)c3c(c2c1)CCCN3C(=O)CN1CCOCC1 the results were Rango complex inh 0.0%, miR-21 FLuc 9%, Rango dissoc inh 7% and GLA inh pH 4.5 -6.
Screening COc1ccc2oc(C(=O)N3CCc4ccccc43)c(C)c2c1 returned Rango complex inh 0.6%, miR-21 FLuc -5% and Rango dissoc inh -2%.
Screening CCOc1ccc(NC(=O)CSc2nc(NS(=O)(=O)c3ccc(C)cc3)cc(=O)[nH]2)cc1 returned Rango complex inh -7.0%, miR-21 FLuc -14% and Rango dissoc inh 31%.
`O=C(Nc1ccc(CN2CCOCC2)cc1)c1cc2ccccc2o1` gave Rango complex inh -7.4%, miR-21 FLuc 0%, Rango dissoc inh 16% and GLA inh pH 4.5 -2.
CCC(C)(C)C(=O)Nc1ncc(S(=O)(=O)c2ccc([N+](=O)[O-])cc2)s1 was read as Rango complex inh 3.1%, miR-21 FLuc 10%, Rango dissoc inh 25% and GLA inh pH 4.5 3.
For CCN(CC(=O)Nc1cc(C)c(Cl)cc1OC)CC(=O)NC1CCS(=O)(=O)C1 (centres undefined) the results were Rango complex inh 1.4%, miR-21 FLuc 1%, Rango dissoc inh 7% and GLA inh pH 4.5 8.
For COc1ccc(N2CC(C(=O)Nc3ccc(S(=O)(=O)Nc4nccs4)cc3)CC2=O)c(OC)c1 (centres undefined) the results were Rango complex inh -2.1% and Rango dissoc inh 21%.
For COc1ccc(C)cc1NC(=O)CSc1nnc(-c2cc3cccc(OC)c3o2)n1N the results were Rango complex inh -1.2%, miR-21 FLuc 1%, Rango dissoc inh 2% and GLA inh pH 4.5 7.
Screening COc1cc(C=NNC(=O)Cn2nc(C)cc2C)ccc1OC(=O)C1CC1 returned Rango complex inh -0.8% and Rango dissoc inh -9%.
CCCCCc1c(O)nc(SCCN(C)C)[nH]c1=O was read as Rango complex inh -0.1%, miR-21 FLuc 3%, Rango dissoc inh -18% and GLA inh pH 4.5 -1.
Screening CCN1CCN(S(=O)(=O)c2ccc(OC)c(NC(=O)c3ccccc3F)c2)CC1 returned Rango complex inh -1.4% and Rango dissoc inh 20%.
For CCS(=O)(=O)c1nc(S(=O)(=O)c2ccc(Cl)cc2)c(N2CCCC2)s1 the results were Rango complex inh 3.2%, miR-21 FLuc -1% and Rango dissoc inh -4%.
Screening CC(C)(C)NC(=O)C(=O)NN=C1CCCCCC1 returned Rango complex inh 0.6%, miR-21 FLuc -6%, Rango dissoc inh 1% and GLA inh pH 4.5 7.
`COc1ccc(OCc2nnc(SCC(=O)Nc3ccccc3Cl)o2)cc1` gave Rango complex inh 1.7%, miR-21 FLuc -1% and Rango dissoc inh -3%.
`COc1cc(C(=S)N2CCOCC2)cc(OC)c1OC(=O)c1cc([N+](=O)[O-])c(C)c([N+](=O)[O-])c1` gave Rango complex inh inconclusive, miR-21 FLuc -1%, Rango dissoc inh 3% and GLA inh pH 4.5 0.
Screening COc1cc(CNCCCN2CCOCC2)cc(Br)c1OCC(=O)N1CCCCC1 returned Rango complex inh -3.8%, miR-21 FLuc 1%, Rango dissoc inh -3% and GLA inh pH 4.5 -5.
Screening CN(CCNC(=O)c1ccc(N2CCCC2=O)cc1)CCc1ccccc1 returned Rango complex inh 2.7%, miR-21 FLuc -20%, Rango dissoc inh -16% and GLA inh pH 4.5 7.
Screening CC(C)(C)NC(=O)CN1CCN(C(=O)CCl)CC1 returned Rango complex inh -1.9%, miR-21 FLuc 20%, Rango dissoc inh -2% and GLA inh pH 4.5 -6.
O=C1CC(Sc2ncn[nH]2)C(=O)N1c1ccccc1 (centres undefined) was read as Rango complex inh 2.3%, miR-21 FLuc 1%, Rango dissoc inh 4% and GLA inh pH 4.5 -9.
Screening Cc1cc(Sc2nccn2C)ncc1[N+](=O)[O-] returned Rango complex inh 1.2%, miR-21 FLuc -1%, Rango dissoc inh 17% and GLA inh pH 4.5 2.
Screening O=C(Nc1ccccc1)c1cccc(S(=O)(=O)N2CCCCC2)c1 returned Rango complex inh -0.9%, miR-21 FLuc -1%, Rango dissoc inh 21% and GLA inh pH 4.5 -2.
For O=[N+]([O-])c1cccnc1Oc1ccc(C2SCCS2)cc1 the results were Rango complex inh -1.3%, miR-21 FLuc -58%, Rango dissoc inh 19% and GLA inh pH 4.5 -10.
For CSC(=NCc1cccnc1)NS(=O)(=O)c1cccs1 the results were Rango complex inh -0.4%, miR-21 FLuc -7%, Rango dissoc inh -6% and GLA inh pH 4.5 -2.
Screening NC(=O)CC(NC(=O)Cc1ccc(Br)cc1)c1ccc(NC2CCCCCC2)c([N+](=O)[O-])c1 (centres undefined) returned Rango complex inh inconclusive, miR-21 FLuc -2%, Rango dissoc inh -6% and GLA inh pH 4.5 13.
CCCCN(CC)CCCNC(=O)c1cn(C)c2ccc(S(=O)(=O)N(C)C3CCCCC3)cc2c1=O was read as Rango complex inh 0.0%, miR-21 FLuc -3%&5% and Rango dissoc inh inconclusive.
Screening Cc1cc(C)nc(N2CCN(C(=O)c3ccc(S(=O)(=O)N4CCCCCC4)cc3)CC2)n1 returned Rango complex inh inconclusive, miR-21 FLuc -1%, Rango dissoc inh 11% and GLA inh pH 4.5 -1.

Entries from the list above with a thiophene ring, fused or not:
Cc1ccnc(NC(=O)c2cccs2)c1 was read as Rango complex inh -2.9%, miR-21 FLuc -32%, Rango dissoc inh -3% and GLA inh pH 4.5 0.
For O=C(Nc1c2c(nn1-c1ccccc1)CS(=O)(=O)C2)c1cccs1 the results were Rango complex inh -0.2%, miR-21 FLuc 0% and Rango dissoc inh 3%.
`O=C(Cc1cccs1)NCc1ccccc1Br` gave Rango complex inh -1.3%, miR-21 FLuc -42% and Rango dissoc inh 9%.
For CC(Sc1nnc(Cc2cccs2)n1C1CCCCC1)C(=O)N1CCc2ccccc21 (centres undefined) the results were Rango complex inh -1.2%, miR-21 FLuc 17%, Rango dissoc inh -1% and GLA inh pH 4.5 -1.
For CSC(=NCc1cccnc1)NS(=O)(=O)c1cccs1 the results were Rango complex inh -0.4%, miR-21 FLuc -7%, Rango dissoc inh -6% and GLA inh pH 4.5 -2.
